Beta cell apopt: beta cell apoptosis inhibition; 300,000 tested, 0.8% active; protection from apoptosis, % (concentration not given with the values); INS-1E cytokine-induced death, ATP luminescence, 48 h; percent of positive-control rescue, neutral wells zero;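 active = all replicates at 75% or more, or half of them and the mean; inconclusive = half reach 75% but not the mean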;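 also: 0% = cytokine-treated negative control wells and 100% = positive control rescue; higher means more ATP so stronger rescue from cytokine killing; wells of about 40 µL received 100 nL stock; the first replicate is given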
Beta2AR agonist: agonists of human beta-2 adrenergic receptor inducing internalization. P07550. Am2.2-beta2AR cells, FAP receptor internalization, flow cytometry; reference of the scale not given here. response, % (test concentration not listed). 340,000 tested, 0.43% active. AID 504454;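 active = response above a set limit, near 3 SD of response in nonfluorescent compounds, cut at about 42% in these data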;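 also: stock transfer was 100 nL into about 11 µL; a reference agonist was the positive control; negative values mostly stem from fluorescent compounds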
Target sequence (P07550 whole entry, looked up): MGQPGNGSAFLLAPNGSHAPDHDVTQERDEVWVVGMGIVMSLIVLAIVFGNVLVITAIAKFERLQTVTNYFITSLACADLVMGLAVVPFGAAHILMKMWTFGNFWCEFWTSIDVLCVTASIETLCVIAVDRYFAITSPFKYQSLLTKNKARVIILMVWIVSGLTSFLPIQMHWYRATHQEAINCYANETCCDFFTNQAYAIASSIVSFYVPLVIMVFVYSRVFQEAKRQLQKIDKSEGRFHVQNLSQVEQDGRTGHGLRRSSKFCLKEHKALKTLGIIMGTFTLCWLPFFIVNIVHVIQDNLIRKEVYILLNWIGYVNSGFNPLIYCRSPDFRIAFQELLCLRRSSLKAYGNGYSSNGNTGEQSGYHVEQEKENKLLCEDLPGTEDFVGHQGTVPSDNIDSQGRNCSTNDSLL
A1 inh: inhibitors of the anti-apoptotic protein A1, read as caspase activation | MEF A1-2A-BIM cells, Caspase-Glo 3/7 luminescence, 3 h; percent of clofoctol response, vehicle zero | caspase activation, % (no concentration beside the values) | 330,000 tested, 0.066% active | AID 2462;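 active = over half of replicate activation scores above 10%, or exactly half above 10 with the replicate mean above 10; inconclusive = replicate mean below 10 yet half the replicates above 10; inactive = over half of replicates below 10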;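 also: wells of about 30 µL received 50 nL stock; many hits fall short of the cut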
RanGTP-Imp inh: inhibitors of RanGTP-importin-beta interaction, primary screen, biochemical, FRET, CFP-Ran, YFP-importin-beta, homogeneous; 300,000 tested, 1.1% active; cell-free CFP-Ran/YFP-importin-beta FRET ratio; inhibition, % (concentration not given with the values);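 active = most replicates above 15%; inconclusive = exactly half above 15%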;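 also: 0% = DMSO wells and 100% = Ran loaded with GDP instead of GTP; wells of about 40 µL received 100 nL stock; the first replicate is given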
LANA-H2B inh: blocks KSHV LANA binding to histone H2A/H2B; Q9QR71; cell-free LANA-H2A/H2B peptide, fluorescence polarization; inhibition, % (no concentration beside the values); 320,000 tested, 0.6% active; in the data active = inhibition mostly above about 10%, no sharp cut-off; inactive = mostly below about 6.7%;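 also: stock transfer was 7.5 nL into about 10 µL; 0% = median of vehicle wells and 100% = median of positive control wells; one replicate is shown; the record names a cut of 25% in any replicate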
UCH37 DUB inh: blocks the human deubiquitinase UCH37; purified proteasome/UCH37, Ub-AMC cleavage fluorescence; inhibition, % (concentration not given with the values); 330,000 tested, 0.33% active;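 active = mean of two replicates above 20%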;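 also: 0% = compound-free wells with enzyme and 100% = wells lacking proteasome; stock transfer was 100 nL into about 20 µL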
Target sequence (Q9Y5K5 whole entry, looked up): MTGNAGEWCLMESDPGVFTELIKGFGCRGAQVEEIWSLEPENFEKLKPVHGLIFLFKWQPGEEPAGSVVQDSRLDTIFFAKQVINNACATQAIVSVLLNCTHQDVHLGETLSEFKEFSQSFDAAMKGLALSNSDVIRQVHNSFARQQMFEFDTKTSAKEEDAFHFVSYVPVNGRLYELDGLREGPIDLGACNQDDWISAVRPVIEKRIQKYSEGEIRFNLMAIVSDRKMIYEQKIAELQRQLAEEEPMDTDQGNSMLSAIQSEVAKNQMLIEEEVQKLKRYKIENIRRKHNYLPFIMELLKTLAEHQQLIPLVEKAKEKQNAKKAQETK
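Material: Human UCH37 enzyme supplied as purified proteasome complex | Schedule: 30 min preincubation with enzyme, 25 min cleavage at room temperature | Detection: AMC fluorescence 355/460 nm | Measure: % inhibition of Ub-AMC cleavage fluorescence | Controls: Wells without proteasome as full block, compound-free enzyme plus substrate as uninhibited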
Calb FLC: affects C. albicans growth with fluconazole; C. albicans CaCi-2 (fluconazole-resistant clinical isolate) + fluconazole, Alamar Blue growth, 48 h; growth inhibition, % (concentration not given with the values); 300,000 tested, 0.57% active;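 active = most replicates above 75%; inconclusive = exactly half above 75%; inactive = most below 75%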;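 also: all wells also contain fluconazole at 8 µg/ml as a sub-toxic cotreatment; 0% = median of DMSO wells and 100% = median of geldanamycin control wells; wells of about 8 µL received 7.5 nL stock; the first replicate is given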
T cruzi repl: blocks replication of Trypanosoma cruzi; T. cruzi beta-gal in NIH3T3, luminescence, 90 h; AID 1885; inhibition, % (no concentration beside the values); 300,000 tested, 1.4% active;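 active = mean inhibition across valid replicates above about 55%, limit read from the data; inconclusive = mean below that limit but half or more replicates reach it; inactive = mean below it, under half of replicates reach it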;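 also: signal also drops with host cell toxicity which is not excluded here; 0% = plate median of DMSO wells and 100% = zero luminescence signal; higher percent means less beta-gal luminescence so fewer parasites; stock transfer was 50 nL into about 50 µL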
* marks the source's active call; other numbers are inactive results; ? = inconclusive; / = not tested or not shown.

Structure	Beta cell apopt	Beta2AR agonist	A1 inh	RanGTP-Imp inh	LANA-H2B inh	UCH37 DUB inh	Calb FLC	T cruzi repl
COC(=O)C1CCN(S(=O)(=O)CCNC(=O)c2ccc(F)cc2)CC1	-4	-1	0.2	1.9	-7.1	-0.8	-6	-2
CCOC(=O)CCc1c(C)c2ccc(OC3CCCCC3=O)cc2oc1=O (stereo not given)	-1	9	0.3	0.3	0.1	-284	11	7
Cc1cc(C)nc(/N=C(\N)N2CCCCCC2)n1	-7	19	-0.7	0.0	/	/	-4	-9
COc1cc(NC(=O)Cc2ccccc2)ccc1NC(=O)c1ccccc1	/	-4	-0.2	1.1	3.2	-12	10	3
O=C(CSc1nc2ccccc2[nH]1)NCc1ccco1	/	2	-0.7	3.0	0.5	3.6	14	-2
CCC(=NC1CC(C)(C)NC(C)(C)C1)C1=C(O)CC(C)(C)CC1=O	4	0	0.0	3.2	2.6	3.3	3	2
CCC1=NN(C(=O)Cc2ccc([N+](=O)[O-])cc2)C(O)(C(C)(C)C)C1 (stereo not given)	-8	3	-0.4	1.4	-0.7	7.0	0	-1
CC(C)Cc1ccc(S(=O)(=O)N2CCN(C(=O)c3ccco3)CC2)cc1	10	-13	0.6	-3.0	-6.5	2.8	6	4
CCOC(=O)c1cnc(SCC(=O)Nc2ccc(N3CCOCC3)c(Cl)c2)nc1N	0	-15	0.5	-1.5	2.5	-0.1	8	11
Cc1nn2c(c1-c1ccccc1)N=C(c1ccco1)CC2c1ccccc1 (stereo not given)	-2	5	-0.8	-1.9	18	0.6	-1	2
COc1ccc(-c2cnc(N)n2C)cc1	2	-4	-0.2	13	6.3	-3.2	?	-5
O=C(Nc1cccn2ncnc12)c1cccc(C(F)(F)F)c1	0	-22	-4.3	-0.4	-8.9	3.2	-9	-18
O=C(Cn1nnc(-c2ccccc2)n1)Nc1cccc(S(=O)(=O)N2CCCC2)c1	/	-4	-0.4	4.9	4.1	2.9	-4	-11
Cc1ccc(S(=O)(=O)NCC(=O)NNC(=O)c2ccccc2Cl)cc1C	-4	-5	0.3	/	-2.9	/	/	/
N#Cc1cc2c(nc1SCC(=O)O)CCCC2	-7	-1	0.7	0.5	1.4	-1.8	-1	-13
COc1cccc(-n2nnnc2SCC(=O)Nc2nc3c(s2)CCCC3)c1	-3	-4	-2.8	4.0	-16	0.4	5	17
CCOC(=O)C(=NC1CCCCC1)NNc1cccc(C(F)(F)F)c1	-6	6	0.4	-2.3	-1.7	3.5	57*	16
CN(CC(=O)Nc1cccc(F)c1)C(=O)CN1C(=O)C2CCCCC2C1=O (stereo not given)	0	-13	0.2	/	2.7	-1.4	/	/
NC(=O)c1ccccc1N/C=C/C(=O)c1ccc(F)cc1	/	-7	/	-13	/	/	-7	0
COc1cccc(OCCn2cccc2/C=C2/C(=N)N3OC(C)=CC3=NC2=O)c1	0	4	0.4	/	5.6	4.5	-2	-2
Fc1ccccc1C1CCN(Cc2nc(COc3ccccc3)no2)C1 (stereo not given)	-1	1	-0.9	1.8	-5.3	2.6	-4	1
Cc1cc(OCCn2ccnc2)ccc1C(C)C	-2	0	0.5	-11	/	3.1	2	5
Cc1ccc(NC(=O)C2C(c3ccccc3)C=CC(c3ccccc3)C2C(=O)O)cc1 (stereo not given)	-1	7	0.1	1.4	-11	1.8	0	-7
CCS(=O)(=O)Nc1cccc(C2=NN(S(C)(=O)=O)C(c3cccs3)C2)c1 (stereo not given)	/	10	1.1	2.1	-1.2	5.9	-5	-9
COc1ccc(CN2CCN(Cc3ccc(C(F)(F)F)cc3)CC2)cc1	4	-9	0.2	0.7	3.6	0.3	6	38
O=C(CC1S/C(=N/N=C/c2ccco2)NC1=O)Nc1cccc(Cl)c1Cl (stereo not given)	1	3	0.3	?	-0.8	/	11	-15
CCOc1ccc(S(=O)(=O)Nc2ccccc2SC)cc1	3	7	-0.6	/	1.4	6.9	17	8
Cn1nnnc1SCc1nc2ccccc2s1	-2	-2	-5.7	-2.3	2.2	6.0	4	6
Cc1nnc(-c2cnn(-c3ccccc3)c2N)n1Cc1ccc(F)cc1	-4	-10	0.4	0.3	-0.7	2.6	15	-2
Cc1c(C(=O)NC2CCCCC2)sc2ncnc(N3CCN(c4ccccc4)CC3)c12	3	-1	0.3	1.5	0.6	-29	0	-2
COc1ccc(CCn2c(=O)[nH]c3cc(C(=O)N4CCN(c5ccccc5)CC4)ccc3c2=O)cc1OC	5	6	0.5	-0.9	1.5	0.3	-15	-8
COc1ccc(C)cc1-n1c(-c2ccncc2)n[nH]c1=S	-7	1	-0.1	2.5	-0.2	-1.7	-4	-9
CC(C)(C)n1nnnc1C(c1ccncc1)N1CCCCCC1 (stereo not given)	-7	4	-0.2	-3.8	-1.7	-1.5	-8	-9
Cc1ccc(CSc2nsc(C)c2C#N)cc1	-8	-12	0.2	-1.0	0.9	5.2	-1	-5
Cn1cc([N+](=O)[O-])c(C(=O)NNC(=O)c2ccc([N+](=O)[O-])cc2)n1	5	7	-0.3	?	4.4	4.6	-3	-1
CC1CCCCC1NC(=O)CSC1=Nc2ccccc2C2CC=NN12 (stereo not given)	-8	8	0.7	/	-1.4	5.8	/	/
CCOC(=O)c1nnn(CC(=O)N2N=C(c3ccccc3)CC2c2ccccc2)c1C(=O)OCC (stereo not given)	13	-4	-0.1	?	10	0.8	8	16
Cc1nnc(SCC(=O)N(C)Cc2ccccc2)[nH]c1=O	0	0	0.7	0.4	2.8	2.5	-9	-2
Cc1cc(C)cc(NC(=O)c2ccc(CSc3nnnn3C)cc2)c1	-24	19	-2.0	-1.2	3.4	4.1	2	1
COc1ccc(C2C(C(=O)OC3CCCCC3)=C(C)Nc3nnnn32)c(OC)c1OC (stereo not given)	1	-1	-0.2	-1.0	2.7	4.3	-10	44
C=CCNC(=O)CC(=O)N/N=C/c1cccc(C)c1	-5	-1	-0.1	-4.6	7.7	/	1	-2
O=C(CCSc1ccc(Cl)c(Cl)c1)NC12CC3CC(CC(C3)C1)C2	2	7	-0.5	?	-7.7	0.4	-23	29
CS(=O)(=O)N(CC(=O)Nc1ccccc1C(=O)NCCc1ccccc1)c1ccc2c(c1)OCCO2	0	6	-1.0	1.0	-3.8	4.3	-20	20
CN(C)c1nc2c(c(N)nn2-c2ccc(Cl)cc2)c(=O)o1	1	-5	-0.7	?	-3.7	2.3	29	7
C=CCn1nc2n(c1=O)-c1ccccc1SC2	-3	5	0.1	-1.8	-5.6	3.4	1	-1
COc1cccc2c(Cl)c(CC=C(Cl)Cl)c(C)nc12	-4	11	-0.4	3.4	-3.3	-66	12	10
O=C(O)CCc1ccc(S(=O)(=O)NCCc2ccccc2)cc1	-7	0	0.9	-0.2	-2.1	2.1	6	-18
COc1cc(OC)cc(C(=O)NCC2CCCO2)c1 (stereo not given)	/	-3	1.0	2.4	2.2	-2.6	-15	-3
CCCN(c1ccc(C(=O)OC)cc1)S(=O)(=O)c1ccccc1	-8	4	0.4	3.2	-1.2	-0.5	-14	-12
Cc1ccc(NC(=O)Cn2cc(C=O)c3ccccc32)cc1	/	-3	-0.2	7.5	-5.3	2.5	-2	-14
COc1ccc2c(CCNC(N)=S)c[nH]c2c1	7	-5	-0.5	-18	3.9	2.7	3	-10
O=C1CSCN1c1ccc(Cl)c(Cl)c1	-3	2	0.5	-0.3	0.0	4.3	7	-8
O=S(=O)(Nc1c(O)ccc2ccccc12)c1cccc2ccccc12	-13	-17	1.2	1.6	-4.0	1.9	-2	3
CN1C(=O)[C@H]2[C@@H](/C=C/c3ccccc3)N3C(=O)CN(CC4CC4)C(=O)[C@@]3(C)[C@H]2C1=O	-3	-7	1.2	-0.9	2.6	1.2	-4	0
COc1ccc(C=O)cc1Cn1c(=O)n(CCC(=O)NCc2ccco2)c(=O)c2sccc21	-2	-6	0.4	0.4	2.5	4.0	2	8
Clc1ccccc1Cn1nnc2c(N3CCOCC3)nc(C3CC3)nc21	7	2	-2.8	4.1	0.7	0.9	0	18
Cc1cc(C)n(C(=O)COc2ccccc2C)n1	-5	-4	0.0	-1.7	-1.4	6.6	-11	-8
NC(=O)C1CCN(C(=O)C2(NC(=O)Nc3cccc(F)c3)CCCCC2)CC1	-3	-2	0.4	-0.8	0.8	-0.8	-2	-14
C=CCCN(C1CCCC1)S(=O)(=O)c1ccccc1Br	-7	7	0.0	-2.0	-4.1	1.3	3	-1
CC(C)N(CCc1ccncc1)C(=S)Nc1cccc(Cl)c1	-10	4	0.6	2.4	-0.3	3.5	-14	-10

(further entries)
Structure	Beta cell apopt	Beta2AR agonist	A1 inh	RanGTP-Imp inh	LANA-H2B inh	UCH37 DUB inh	Calb FLC	T cruzi repl
COC(=O)COc1ccc(S(=O)(=O)Nc2ccc(NC(C)=O)cc2)cc1	-1	1	-2.0	2.4	2.5	-1.9	-2	0
CCc1ncc(C)[nH]1	-3	/	-0.4	2.7	-6.8	-1.2	-17	-17
COc1ccc2c(c1)C(=O)N(c1ccccc1OC)C(=O)C2	-3	-2	-0.3	-3.6	2.9	2.9	-3	24
O=c1ccccn1CCOc1ccccc1Cl	1	-2	0.4	0.8	0.3	2.0	0	-21
Cc1cc(NS(=O)(=O)c2ccc(NC(=O)N[C@H](C(=O)O)C(C)C)cc2)no1	-3	1	-1.4	1.1	-3.2	-0.5	/	-10
CCc1ccc(NCc2nc(-c3ccccc3)no2)cc1	6	0	-0.9	2.5	3.4	0.8	0	3
CC(C)CNC(=S)NNC(=O)c1ccc(OC(F)F)cc1	-3	-2	-0.8	-2.1	-4.7	-0.6	9	4
O=C(NCCCN1CCOCC1)c1cccs1	-1	0	-0.9	/	3.1	3.5	/	/
COCCCN(C(=O)c1cc(C)oc1C)c1c(N)n(CC(C)C)c(=O)[nH]c1=O	3	-8	1.3	/	/	3.7	/	/
O=C(Nc1nnc(S(=O)(=O)N2CCN(c3ccc(F)cc3)CC2)s1)c1ccccc1	21	-3	-0.9	-0.6	-5.0	/	-17	-21
Cc1ccccc1NC(=O)NCCCN1CCCC1=O	-3	11	0.7	-3.0	3.2	0.0	-2	2
CCCn1nnc(NC(=O)c2cccnc2Cl)n1	-8	-4	-0.7	-2.4	-10	2.3	2	-1
CCNc1nc(NC(N)=S)nc(NC(C)(C)C)n1	-2	-4	0.5	0.6	2.4	5.6	-16	-1
C/C(=N/NC(=O)c1cc(-c2ccc(Cl)s2)[nH]n1)c1ccco1	-3	-3	-1.0	0.7	4.0	/	13	-8
CC(=O)C1C(=O)CC(C)(O)C(C(C)=O)C1c1ccccc1 (stereo not given)	-3	-1	-0.4	-0.4	-1.4	3.2	0	-9
COc1ccc(C2NC(C(=O)O)Cc3c2[nH]c2ccccc32)cc1OC (stereo not given)	-8	-1	0.0	1.5	-1.5	-3.4	20	7
COc1ccc(C2/C(=C(/O)c3ccccc3)C(=O)C(=O)N2C)cc1 (stereo not given)	-1	-8	1.2	2.6	-4.9	7.0	?	-14
CC(=O)Nc1ccc(S(=O)(=O)Nc2c(C)n(C)n(-c3ccccc3)c2=O)cc1	-10	-6	-0.8	6.1	-0.1	-1.9	2	1

Bioassay records: PubChem BioAssay, several laboratories
